Source: PubChem BioAssay
A1 inh: caspase 3/7 activation in MEF A1-2A-BIM cells, primary screen, A1 inhibitor project, cell-based, luminescence, HTS | Caspase-Glo 3/7 luminescence, 3 h; percent of clofoctol response, vehicle zero | caspase activation, % (concentration not given with the values) | hit rate 0.066% among 330,000;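 active means over half of replicate activation scores above 10%, or exactly half above 10 with the replicate mean above 10; inconclusive means replicate mean below 10 yet half the replicates above 10; inactive means over half of replicates below 10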;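 further: wells of about 30 µL received 50 nL stock; many hits fall short of the cut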
AF4-AF9 inh: inhibitors of AF4 peptide binding to AF9, primary screen, biochemical, AlphaScreen, biotin-AF4 peptide, FLAG-AF9, single point; AID 651704, 2012; inhibition, % at 10 µM; hit rate 0.47% among 350,000; Protein AF-9 (Homo sapiens), P42568;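 active means every replicate reaching a set inhibition limit, whatever the replicate mean, cut at about 25% in these data; inconclusive means mean inhibition reaches that limit but some replicates miss it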;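 further: 0% = plate neutral control median and 100% = total signal loss; the record names both 10 and 1 µM as test concentration; the first replicate is given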
RanGTP-Impb inh: inhibitors of RanGTP-importin-beta interaction, primary screen, biochemical, FRET, CFP-Ran, YFP-importin-beta, homogeneous; Ran GTPase (GTP-bound) - importin-beta complex; cell-free CFP-Ran/YFP-importin-beta FRET ratio; inhibition, % (no concentration beside the values); hit rate 1.1% among 300,000;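 active means most replicates above 15%; inconclusive means exactly half above 15%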;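 further: 0% = DMSO wells and 100% = Ran loaded with GDP instead of GTP; wells of about 40 µL received 100 nL stock; the first replicate is given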
LANA-H2A inh: blockers of LANA interaction with H2A/H2B – biochemical, FP readout, HTS, primary screen. Protein LANA1 (Human herpesvirus 8 type P (isolate GK18)), Q9QR71. cell-free LANA-H2A/H2B peptide, fluorescence polarization. inhibition, % (no concentration beside the values). hit rate 0.6% among 320,000. AID 2629, 2010; in the data active means inhibition mostly above about 10%, no sharp cut-off; inactive means mostly below about 6.7%;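 further: stock transfer was 7.5 nL into about 10 µL; 0% = median of vehicle wells and 100% = median of positive control wells; one replicate is shown; the record names a cut of 25% in any replicate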
Target sequence (Q9QR71 whole entry, looked up): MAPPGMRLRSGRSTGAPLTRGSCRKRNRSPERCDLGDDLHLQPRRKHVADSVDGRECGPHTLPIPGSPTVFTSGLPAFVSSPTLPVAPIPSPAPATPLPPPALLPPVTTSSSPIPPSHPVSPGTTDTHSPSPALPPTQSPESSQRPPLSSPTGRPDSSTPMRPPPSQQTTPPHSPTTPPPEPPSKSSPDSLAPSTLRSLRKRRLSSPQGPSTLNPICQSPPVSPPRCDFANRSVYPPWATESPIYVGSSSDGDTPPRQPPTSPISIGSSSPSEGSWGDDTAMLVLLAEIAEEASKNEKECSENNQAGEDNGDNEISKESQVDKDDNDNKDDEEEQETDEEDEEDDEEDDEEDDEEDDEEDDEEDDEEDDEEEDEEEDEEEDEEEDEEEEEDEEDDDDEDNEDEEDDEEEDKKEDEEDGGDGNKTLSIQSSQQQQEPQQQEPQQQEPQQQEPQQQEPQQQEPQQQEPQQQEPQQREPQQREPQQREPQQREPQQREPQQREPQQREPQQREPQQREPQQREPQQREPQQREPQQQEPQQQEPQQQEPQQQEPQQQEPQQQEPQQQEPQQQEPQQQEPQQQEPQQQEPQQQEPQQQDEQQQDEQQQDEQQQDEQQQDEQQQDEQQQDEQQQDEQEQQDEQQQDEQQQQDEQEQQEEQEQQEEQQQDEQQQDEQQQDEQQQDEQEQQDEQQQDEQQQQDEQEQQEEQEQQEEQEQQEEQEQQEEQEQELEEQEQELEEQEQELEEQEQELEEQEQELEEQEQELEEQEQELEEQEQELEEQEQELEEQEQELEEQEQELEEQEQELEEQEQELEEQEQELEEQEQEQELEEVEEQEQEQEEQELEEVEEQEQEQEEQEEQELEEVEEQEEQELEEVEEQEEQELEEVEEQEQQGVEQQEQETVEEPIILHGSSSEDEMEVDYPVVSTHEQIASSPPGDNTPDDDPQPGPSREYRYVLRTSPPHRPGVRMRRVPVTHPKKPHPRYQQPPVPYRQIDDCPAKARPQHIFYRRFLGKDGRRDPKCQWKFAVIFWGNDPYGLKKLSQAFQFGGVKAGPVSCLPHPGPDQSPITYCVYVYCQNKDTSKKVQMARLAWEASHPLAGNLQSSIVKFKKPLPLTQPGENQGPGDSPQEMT
T cruzi inh: inhibitors of intracellular T. cruzi growth, primary screen, luminescence, NIH3T3 host cells; T. cruzi beta-gal in NIH3T3, 90 h; inhibition, % (concentration not given with the values); hit rate 1.4% among 300,000; AID 1885, 2009;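 active means mean inhibition across valid replicates above about 55%, limit read from the data; inconclusive means mean below that limit but half or more replicates reach it; inactive means mean below it, under half of replicates reach it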;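 further: signal also drops with host cell toxicity which is not excluded here; 0% = plate median of DMSO wells and 100% = zero luminescence signal; higher percent means less beta-gal luminescence so fewer parasites; stock transfer was 50 nL into about 50 µL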
Beta cell apopt: inhibitors of cytokine-induced beta cell apoptosis, primary screen, luminescence; INS-1E cytokine-induced death, ATP luminescence, 48 h; percent of positive-control rescue, neutral wells zero; protection from apoptosis, % (no concentration beside the values); hit rate 0.8% among 300,000;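 active means all replicates at 75% or more, or half of them and the mean; inconclusive means half reach 75% but not the mean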;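 further: 0% = cytokine-treated negative control wells and 100% = positive control rescue; higher means more ATP so stronger rescue from cytokine killing; wells of about 40 µL received 100 nL stock; the first replicate is given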
Vif TR-FRET: inhibitors of Vif binding to APOBEC3G peptide, primary screen, biochemical, TR-FRET, GST-Vif 1-94, biotin-A3G peptide, dose response retest (AID 1117319). Virion infectivity factor (Human immunodeficiency virus type 1 group M subtype B (isolate …. TR-FRET GST-Vif / biotin-A3G peptide binding; higher % means a stronger effect; test concentration not given here; strong numbers were not always called active. inhibition, %, or IC50 in µM where a hit was titrated. hit rate 0.57% among 260,000;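 active means above the screen mean plus three standard deviations and confirmed in dose response; inconclusive means results disagree or hit not tested in dose response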;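 further: Vif residues 1-94 fused to GST binding biotinylated APOBEC3G peptide 110-148; 0% = full assay without inhibitor and 100% = GST in place of GST-Vif; retest series ran down from 100 µM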
Calb FLC: C. albicans growth inhibition with fluconazole, primary screen, CaCi-2 strain, Alamar Blue fluorescence; growth inhibition, % (no concentration beside the values); C. albicans CaCi-2 (fluconazole-resistant clinical isolate) + fluconazole, 48 h; hit rate 0.57% among 300,000; AID 1979, 2009;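 active means most replicates above 75%; inconclusive means exactly half above 75%; inactive means most below 75%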;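 further: all wells also contain fluconazole at 8 µg/ml as a sub-toxic cotreatment; 0% = median of DMSO wells and 100% = median of geldanamycin control wells; wells of about 8 µL received 7.5 nL stock; the first replicate is given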
Numbers without * were called inactive; ? = inconclusive; nt = no result given; & = joins results of further samples.

SMILES | A1 inh | AF4-AF9 inh | RanGTP-Impb inh | LANA-H2A inh | T cruzi inh | Beta cell apopt | Vif TR-FRET | Calb FLC
COc1ccc(OC)c(NC(=O)CNC(=O)c2ccc([N+](=O)[O-])cc2)c1 | -0.3 | 7.1 | 4.9 | -1.2 | -9.5 | 1.6 | -6.0% | 14.5
O=C(COC(=O)C12CC3CC(CC(C3)C1)C2)NCCc1ccccc1 | 0.2 | nt | 1.4 | 3.7 | -4.0 | nt | 0.2% | -5.4
Cc1nonc1NC(=O)CSc1nc2ccccc2cc1C#N | -0.2 | -2.9 | -10.4 | -0.9 | 6.0 | -3.9 | nt | 3.7
Cc1ccccc1NC(=O)Cc1nnc(N)s1 | -0.6 | 17.6 | 1.8 | 3.7 | -0.4 | -3.3 | 6.7% | 2.2
CCOc1ccc(Cn2c(=O)sc3ccccc32)cc1OC | 2.3 | -3.0 | 9.3 | 0.4 | -0.1 | 2.4 | 3.7% | -7.8
COc1cc(OC)cc(C(=O)NNC(=S)Nc2ccc(S(N)(=O)=O)cc2)c1 | 0.3 | -1.2 | -7.6 | 5.7 | -13.0 | -0.6 | 21.8% | -24.1
O=C(CCc1nnc2ccc(N3CCC4(CC3)OCCO4)nn12)Nc1cc(F)ccc1F | 0.2 | -1.2 | -4.2 | 3.8 | -24.0 | -1.2 | -1.1% | -4.6
Cc1cc(C)cc(NC(=O)CSc2nc3c(oc4ccccc43)c(=O)n2-c2ccccc2)c1 | -0.4 | 0.1 | 2.9 | -0.2 | 55.0* | -0.9 | nt | 25.2
COc1cccc(C(=O)OCC(=O)c2[nH]c(C)c(C(C)=O)c2C)c1 | -0.8 | 1.5 | nt | 0.4 | nt | -4.1 | -1.9% | nt
CCOC(=O)C(=O)N/N=C/c1ccc(F)cc1 | -0.5 | -2.0 | ? | 1.6 | -24.4 | 2.0 | 2.0% | -5.9
O=C1OCC2=C1C(c1ccccc1)CC(=O)N2c1ccccc1 (stereo not given) | -0.2 | -1.6 | 0.2 | -2.6 | -5.2 | 0.2 | 6.7% | -7.5
COC(=O)Nc1nc(-c2ccccc2)c(C(=O)c2ccccc2)s1 | 0.2 | nt | ? | 1.5 | 30.8 | 24.6 | -107.5% | -1.1
Cc1nn(-c2ccccc2)c(NC(=O)c2cccs2)c(-c2ccccc2)c1=O | 0.4 | nt | ? | 0.9 | -20.1 | 3.6 | -7.7% | -9.4
COc1cccc(/C=C2\Oc3cc(OCC(=O)N4CCCCC4)ccc3C2=O)c1OC | 0.3 | 4.6 | -2.8 | 1.2 | 5.6 | 3.0 | nt | 6.9
CCn1c(=O)c2c(nc3n2CCCN3CCc2ccc(OC)c(OC)c2)n(C)c1=O | -0.1 | 3.3 | 5.4 | 2.4 | -1.7 | -1.8 | -1.0% | 9.9
C=C1CC2C(CCC3(C)C2CCC3(O)C(C)=O)C2(C)CCC(=O)C=C12 (stereo not given) | -0.8 | -2.6 | 7.0 | 4.8 | -22.8 | -27.1 | -0.2% | -8.2
Cc1cccc2cc(/C=N/NC(=O)CN3CCOCC3)c(Cl)nc12 | -0.7 | nt | -1.1 | -6.7 | -6.1 | -5.3 | -3.9% | 3.5
O=C(C[C@H]1C/C=C\CCC(=O)O[C@@H](c2ccccc2)CNC1=O)NCCO | 1.3 | -3.1 | nt | 0.1 | nt | -0.7 | nt | nt
NC(=O)C1CCN(C2CC(=O)NC2=O)CC1 (stereo not given) | 1.3 | -2.5 | 1.2 | -2.8 | 4.0 | -3.4 | -6.4% | 23.3
CCOc1ccc(CCNC(=O)CCC(=O)N2CCOc3ccc(C)cc32)cc1OCC | nt | -2.6 | -0.3 | -2.9 | 2.1 | -5.7 | nt | 5.8
O=C(Nc1ccc(S(=O)(=O)Nc2cnc3ccccc3n2)cc1)c1cccc(OC(F)F)c1 | 0.5 | -15.2 | -4.2 | 2.5 | 4.6 | -2.4 | nt | -13.1
CCOc1cccc(C(=O)Nc2nnc(-c3ccco3)s2)c1 | -10.4 | nt | nt | 1.0 | nt | -2.4 | 8.9% | nt
CCOc1ncccc1C(=O)Nc1ccc(S(=O)(=O)Nc2nccs2)cc1 | -0.6 | -1.9 | -4.4 | -3.5 | -12.3 | 1.4 | 5.1% | -7.4
Cc1ccnc(NC(=O)C2CCC(CNc3c(N4CCCC4)c(=O)c3=O)CC2)c1 (stereo not given) | -0.2 | 4.5 | 3.4 | 2.4 | -4.1 | -4.1 | 15.5% | -2.2
O=C(COCC(=O)NCc1ccccc1)NCc1ccccc1 | 1.3 | -0.1 | -0.6 | 0.0 | -7.1 | -1.6 | -1.9% | -4.3
COc1ccc(CNC(=O)c2ccc(NC(=O)CC3SC(N4CCCCC4)=NC3=O)cc2)cc1 (stereo not given) | -0.6 | nt | 1.8 | -1.3 | -9.2 | -6.4 | -2.2%&-1.4% | -3.1
CN1CCN(S(=O)(=O)c2cccc(C(=O)Nc3cccc(S(N)(=O)=O)c3)c2)CC1 | 0.4 | 1.3 | 13.2 | -1.6 | -8.0 | -6.4 | nt | 3.6
COc1cc(S(=O)(=O)NC(C)C)ccc1Cl | -0.2 | nt | -1.1 | -5.6 | nt | -9.2 | 3.1% | 0.5
Cc1ccc(S(=O)(=O)N(C)C)cc1NC(=O)C(C)OC(=O)c1ccc2ccccc2n1 (stereo not given) | 1.3 | 2.4 | nt | -4.5 | nt | 0.9 | nt | nt
CCc1nnc(NC(=O)CSc2ncnc3c2oc2ccccc23)s1 | -0.5 | ? | ? | 1.4 | -7.9 | 3.6 | -12.1% | 3.2
CCOC(=O)CNC(=O)c1cc(-c2ccccn2)nc2c(C)c(Cl)ccc12 | -0.1 | -1.2 | 2.9 | 0.9 | 0.7 | 12.1 | -14.6% | -1.8
N#Cc1c(-c2ccc3c(c2)OCO3)ccn2nc(-c3cccc(C(F)(F)F)c3)nc12 | 1.0 | nt | 20.3* | -9.0 | 41.6 | 0.6 | 25.3% | 0.7
CN(C)/C=C(\C=O)c1ccc(Cl)cc1Cl | 0.4 | -0.9 | 1.9 | 8.0 | -12.0 | -8.8 | 6.0% | 1.2
Cc1nn(-c2ccccc2)nc1C(N)=O | 0.3 | nt | 1.0 | -3.3 | -0.4 | -6.3 | 29.4% | -3.7
O=C(COC(=O)Cn1cnc2ccccc21)Nc1cccc2c1C(=O)c1ccccc1C2=O | 0.3 | 4.3 | -2.0 | 0.5 | -0.3 | 39.2 | nt | -23.5
O=c1ccc2ccc(Oc3ccc([N+](=O)[O-])cc3Cl)cc2o1 | 0.9 | -17.5 | nt | -2.4 | nt | -0.7 | -11.2% | 24.7
NC(=S)N/N=C1\CCOc2ccc(F)cc21 | 0.0 | -0.8 | -0.4 | -7.1 | -13.7 | -7.0 | nt | 3.5
Cc1ccc(S(=O)(=O)NCCCNC(=O)N2CCOCC2)cc1 | 0.1 | nt | 8.5 | 3.2 | -7.6 | 3.7 | -0.8% | -1.6
CCn1c(SCc2cccc(C)c2)nnc1-c1ccccc1 | -0.8 | nt | -1.3 | 1.2 | -8.0 | 1.1 | 1.6% | ?
Cn1cnc(Sc2ncnc3nc[nH]c23)c1[N+](=O)[O-] | -0.3 | -2.1 | 0.5 | -1.6 | 28.6 | -2.8 | 7.6% | -6.3
CCOc1ncccc1C(=O)OCC(=O)c1cc(C)n(Cc2ccco2)c1C | -3.2 | nt | -1.3 | 5.8 | -5.7 | -3.1 | 6.9% | -0.5
COc1ccccc1/C=C/C=N/NC(=O)c1ccccn1 | -2.0 | 3.6 | 2.6 | -5.0 | -15.4 | 4.1 | nt | 11.9
CC1CCN(c2c(NCC3CCC(C(=O)NCc4ccccc4Cl)CC3)c(=O)c2=O)CC1 (stereo not given) | -0.1 | -0.2 | 1.4 | 1.7 | -9.8 | 0.6 | 32.2% | 3.0
COc1cc(NC(=O)c2ccc(Cl)cc2Cl)ccc1NC(=O)c1cccs1 | -0.1 | -20.7 | -5.6 | -5.1 | 1.7 | -2.3 | ? | -2.4
COc1ccc(CN(C)CC(=O)Nc2ccc(SC(F)F)cc2)cc1OC | -0.5 | -0.5 | 3.2 | -0.4 | 13.4 | 4.9 | -9.5% | 33.0
Cc1ccc(C(=O)NCC(=O)OCC(=O)Nc2cc(S(=O)(=O)N3CCOCC3)ccc2C)cc1 | -0.5 | 0.6 | 5.0 | 3.1 | -7.8 | -0.7 | 2.6% | -9.5
CCOc1ccccc1-n1c(C)nc2cc(C(=O)O)ccc21 | 1.0 | -0.4 | -1.7 | -5.7 | -19.8 | -1.4 | -2.5% | 2.2
O=C(CCCN1C(=O)c2cccnc2C1=O)Nc1ccc(F)cc1Cl | 0.6 | -1.5 | 2.2 | 5.8 | -9.3 | -6.2 | -3.6% | 13.9
O=C(Cc1ccccc1F)Nc1ccccc1-c1ccccc1 | 0.2 | 0.5 | 2.9 | nt | -0.8 | -4.4 | 2.7% | 25.6
CCOc1ccccc1N(CC(=O)Nc1cccnc1)S(C)(=O)=O | 0.0 | nt | -2.4 | -0.5 | -6.7 | -1.0 | ? | 1.7
COc1ccc(N2CCN(C(=O)CCC(=O)N3CCOc4ccc(C)cc43)CC2)cc1 | -1.7 | -5.5 | 4.4 | 1.5 | -2.3 | 2.8 | nt | -2.1
Cc1onc(-c2ccccc2Cl)c1C(=O)NC(=S)Nc1ccc(C(C)(C)C)cc1 | 0.1 | 1.0 | -1.4 | -2.9 | 0.7 | 6.3 | 6.8% | 2.3
COc1ccccc1NC(=O)c1ccc2nc(C)c(C)nc2c1 | 0.2 | -11.8 | 5.6 | -1.2 | -3.6 | 0.5 | nt | -6.4
c1ccc(N2CCOCC2)c(Nc2nc3ccccc3n3cnnc23)c1 | 0.5 | -0.1 | 2.3 | -4.4 | 17.3 | nt | 6.4% | 7.1
O=S(=O)(c1ccccc1)c1nc(-c2ccco2)oc1N1CCCCC1 | 0.8 | -0.2 | 0.1 | 7.1 | -4.6 | 2.5 | nt | 0.8
Clc1cc2c(cc1/C=N/Nc1nc(N3CCOCC3)nc(N3CCOCC3)n1)OCO2 | 0.0 | 0.2 | 0.9 | 6.4 | 16.5 | 6.2 | 9.4% | -33.7
CCOc1ccc(CCNC(=O)COC(=O)c2oc3ccccc3c2COC)cc1OCC | -0.2 | -10.9 | nt | -1.0 | nt | -7.0 | -1.4% | nt
COc1ccc(NC(=O)CSc2nnc(Cn3nnc4ccccc43)n2C)cc1 | -0.7 | nt | nt | 2.1 | nt | 4.9 | -2.7% | nt
CCCCCNCc1ccc(OCc2ccc(Cl)nc2)c(OC)c1 | 0.1 | 3.7 | -3.3 | 2.6 | 22.9 | 6.7 | nt | -14.6
CCn1c(SCC(=O)Nc2ccccc2OC)nnc1-c1cnccn1 | -0.9 | nt | -5.7 | -4.0 | -5.0 | -1.4 | 0.6% | 8.7
